Bioassay records: PubChem BioAssay, several laboratories
Beta cell apopt: beta cell apoptosis inhibition | INS-1E cytokine-induced death, ATP luminescence, 48 h; percent of positive-control rescue, neutral wells zero | protection from apoptosis, % (concentration not given with the values) | 300,000 compounds, 0.8% hits;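 active = all replicates at 75% or more, or half of them and the mean; inconclusive = half reach 75% but not the mean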;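 note: 0% = cytokine-treated negative control wells and 100% = positive control rescue; higher means more ATP so stronger rescue from cytokine killing; wells of about 40 µL received 100 nL stock; the first replicate is given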
A1 inh: inhibitors of the anti-apoptotic protein A1, read as caspase activation; MEF A1-2A-BIM cells, Caspase-Glo 3/7 luminescence, 3 h; percent of clofoctol response, vehicle zero; caspase activation, % (test concentration not listed); 330,000 compounds, 0.066% hits;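 active = over half of replicate activation scores above 10%, or exactly half above 10 with the replicate mean above 10; inconclusive = replicate mean below 10 yet half the replicates above 10; inactive = over half of replicates below 10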;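 note: wells of about 30 µL received 50 nL stock; many hits fall short of the cut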
RanGTP-Impb inh: inhibitors of RanGTP-importin-beta interaction, primary screen, biochemical, FRET, CFP-Ran, YFP-importin-beta, homogeneous; cell-free CFP-Ran/YFP-importin-beta FRET ratio; inhibition, % (concentration not given with the values); 300,000 compounds, 1.1% hits; AID 2216;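 active = most replicates above 15%; inconclusive = exactly half above 15%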;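 note: 0% = DMSO wells and 100% = Ran loaded with GDP instead of GTP; wells of about 40 µL received 100 nL stock; the first replicate is given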
Calb FLC: C. albicans growth modulation with fluconazole | C. albicans CaCi-2 (fluconazole-resistant clinical isolate) + fluconazole, Alamar Blue growth, 48 h | AID 1979 | growth inhibition, % (test concentration not listed) | 300,000 compounds, 0.57% hits;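 active = most replicates above 75%; inconclusive = exactly half above 75%; inactive = most below 75%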;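 note: all wells also contain fluconazole at 8 µg/ml as a sub-toxic cotreatment; 0% = median of DMSO wells and 100% = median of geldanamycin control wells; wells of about 8 µL received 7.5 nL stock; the first replicate is given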
T cruzi repl: T. cruzi replication inhibition; T. cruzi beta-gal in NIH3T3, luminescence, 90 h; 300,000 compounds, 1.4% hits; inhibition, % (no concentration beside the values);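 active = mean inhibition across valid replicates above about 55%, limit read from the data; inconclusive = mean below that limit but half or more replicates reach it; inactive = mean below it, under half of replicates reach it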;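 note: signal also drops with host cell toxicity which is not excluded here; 0% = plate median of DMSO wells and 100% = zero luminescence signal; higher percent means less beta-gal luminescence so fewer parasites; stock transfer was 50 nL into about 50 µL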
LANA-H2B inh: blocks KSHV LANA binding to histone H2A/H2B | Q9QR71 | AID 2629 | 320,000 compounds, 0.6% hits | inhibition, % (no concentration beside the values) | cell-free LANA-H2A/H2B peptide, fluorescence polarization; in the data active = inhibition mostly above about 10%, no sharp cut-off; inactive = mostly below about 6.7%;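 note: stock transfer was 7.5 nL into about 10 µL; 0% = median of vehicle wells and 100% = median of positive control wells; one replicate is shown; the record names a cut of 25% in any replicate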
Target sequence (Q9QR71 whole entry, looked up): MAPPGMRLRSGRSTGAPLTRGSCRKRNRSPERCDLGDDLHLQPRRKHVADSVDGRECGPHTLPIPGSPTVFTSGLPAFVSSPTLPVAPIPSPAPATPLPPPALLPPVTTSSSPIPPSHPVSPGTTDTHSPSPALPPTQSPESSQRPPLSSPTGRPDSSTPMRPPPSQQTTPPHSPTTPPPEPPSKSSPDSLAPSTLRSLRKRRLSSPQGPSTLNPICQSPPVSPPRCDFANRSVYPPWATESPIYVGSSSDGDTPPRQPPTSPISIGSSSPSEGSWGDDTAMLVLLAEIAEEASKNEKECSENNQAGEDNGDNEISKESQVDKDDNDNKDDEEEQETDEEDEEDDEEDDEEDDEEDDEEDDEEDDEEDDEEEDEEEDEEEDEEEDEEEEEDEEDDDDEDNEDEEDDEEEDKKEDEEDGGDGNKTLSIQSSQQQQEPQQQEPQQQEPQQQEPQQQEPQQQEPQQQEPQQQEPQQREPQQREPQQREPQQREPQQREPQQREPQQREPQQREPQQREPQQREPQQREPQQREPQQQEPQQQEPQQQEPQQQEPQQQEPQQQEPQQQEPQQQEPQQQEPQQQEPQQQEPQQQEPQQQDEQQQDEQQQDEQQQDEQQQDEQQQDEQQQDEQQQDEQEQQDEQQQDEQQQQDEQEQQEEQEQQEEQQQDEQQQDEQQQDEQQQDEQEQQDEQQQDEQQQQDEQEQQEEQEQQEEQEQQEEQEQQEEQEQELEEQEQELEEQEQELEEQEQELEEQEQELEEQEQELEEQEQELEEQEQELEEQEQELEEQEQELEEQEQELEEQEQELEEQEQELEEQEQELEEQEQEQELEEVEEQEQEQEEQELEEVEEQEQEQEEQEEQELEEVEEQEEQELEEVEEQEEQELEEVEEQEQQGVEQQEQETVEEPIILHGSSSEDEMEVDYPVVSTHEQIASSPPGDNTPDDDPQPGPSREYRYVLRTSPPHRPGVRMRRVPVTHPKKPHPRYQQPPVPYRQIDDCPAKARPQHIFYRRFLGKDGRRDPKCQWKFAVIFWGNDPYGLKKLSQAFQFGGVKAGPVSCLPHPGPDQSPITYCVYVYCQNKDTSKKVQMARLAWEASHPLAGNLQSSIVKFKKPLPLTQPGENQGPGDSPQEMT
MLL AF4-AF9 inh: blocks AF4 peptide binding to human AF9; AID 651704; inhibition, % at 10 µM; 350,000 compounds, 0.47% hits; P42568; AlphaScreen, biotin-AF4 peptide binding to FLAG-AF9;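 active = every replicate reaching a set inhibition limit, whatever the replicate mean, cut at about 25% in these data; inconclusive = mean inhibition reaches that limit but some replicates miss it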;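 note: 0% = plate neutral control median and 100% = total signal loss; the record names both 10 and 1 µM as test concentration; the first replicate is given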
Vif A3G: HIV-1 Vif–A3G interaction blockers – biochemical, TR-FRET, GST-Vif 1-94, biotin-A3G peptide, dose response retest, primary screen (AID 1117319); TR-FRET GST-Vif / biotin-A3G peptide binding; higher % means a stronger effect; test concentration not given here; strong numbers were not always called active; one-dose inhibition, %; IC50 in µM for titrated hits; 260,000 compounds, 0.57% hits;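 active = above the screen mean plus three standard deviations and confirmed in dose response; inconclusive = results disagree or hit not tested in dose response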;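 note: Vif residues 1-94 fused to GST binding biotinylated APOBEC3G peptide 110-148; 0% = full assay without inhibitor and 100% = GST in place of GST-Vif; retest series ran down from 100 µM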
* marks the source's active call; other numbers are inactive results; ? = inconclusive; nt = no result given; & = joins results of further samples. Compounds were not picked by outcome (roughly 4.3% active in at least one column).

SMILES | Beta cell apopt | A1 inh | RanGTP-Impb inh | Calb FLC | T cruzi repl | LANA-H2B inh | MLL AF4-AF9 inh | Vif A3G
O=C1C2C3c4ccccc4C(c4ccccc43)C2C(=O)N1c1ccncc1 (stereo not given) | nt | nt | -2.5 | 0 | -8 | nt | -0.5 | nt
Cc1ccc(C(=O)OC2OC(=O)C(Cl)=C2N2CCOCC2)cc1 (stereo not given) | -4 | 0.4 | -6.7 | 15 | -7 | 3.7 | nt | 14%
COCC(=O)Nc1ccc(Br)cc1 | -2 | 0.6 | -0.7 | 6 | -2 | 0.1 | nt | 0%
CC(=O)Nc1ccc(S(=O)(=O)NCc2cccnc2)cc1 | 1 | -0.9 | -1.5 | 5 | 1 | -4.0 | nt | nt
O=C(CSc1nc2ccccc2s1)N/N=C/c1ccccc1C(=O)O | -7 | 0.3 | 2.2 | -21 | -8 | -3.0 | -0.8 | 4%
CCCCCCCOC1(c2ccccc2)OC(=O)c2ccccc21 (stereo not given) | 3 | 0.2 | 1.0 | 30 | 2 | -0.1 | nt | -9%
COc1ccc(-c2cc(C(=O)N3CCN(C(c4ccccc4)c4ccccc4)CC3)no2)cc1OC | 19 | 0.2 | 1.1 | -7 | 22 | -0.7 | nt | 21%&2%
Cn1cnnc1SCC(=O)N1CCc2ccccc21 | -7 | 0.0 | 3.9 | -7 | -7 | 0.3 | nt | 2%
CC(=O)Nc1cccc(NC(=O)c2c(-c3c(Cl)cccc3Cl)noc2C)c1 | -2 | 0.5 | 0.6 | -19 | -18 | 5.3 | 1.8 | 5%
O=C(O)CC(c1cccc2ccccc12)N1Cc2ccccc2C1=O (stereo not given) | 0 | 0.2 | 3.9 | 0 | -3 | -3.5 | -0.9 | 2%
O=C(Nc1ccccc1N1CCCC1)c1cccc(Cl)c1Cl | -3 | 0.8 | 1.9 | 6 | 11 | -3.0 | 1.0 | -3%
O=C(COC(=O)C1CCN(S(=O)(=O)c2cccs2)CC1)NCc1ccccc1 | -3 | 0.4 | 4.8 | 3 | 1 | 1.0 | -1.0 | nt
CC(=O)c1ccc(OC(C)C)c(CN2CCCCC2)c1 | 3 | -0.2 | -3.3 | -15 | 12 | 3.0 | 9.8 | 3%
Cc1ccc(C(=O)c2cc([N+](=O)[O-])ccc2N2CCCCC2)cc1 | 10 | 1.4 | -4.3 | -2 | -6 | -1.4 | nt | nt
COc1ccc(NC(=O)c2ccc3c(c2)NC(=O)CO3)cc1OC | 1 | -0.2 | ? | 0 | -1 | 2.8 | -0.1 | nt
Cc1cc(C(=O)CSc2nc(N)cc(=O)[nH]2)c(C)n1CCc1ccc(Cl)cc1 | 7 | -0.7 | 5.6 | -5 | -3 | -7.8 | nt | ?
Cc1ccc(CNC(=O)CSc2nnnn2C)cc1 | -8 | 0.8 | -2.8 | 16 | -5 | -0.4 | nt | 4%
CCC(CC)C(=O)Nc1nnc(-c2cccs2)s1 | 1 | 1.7 | -1.8 | -22 | 22 | -1.3 | nt | -5%
Cc1ccc2c(c1)Oc1ccc(NC(=O)CCCl)cc1C(=O)N2 | -2 | -0.6 | 2.3 | 15 | -69 | -2.7 | 0.1 | -2%
CN(C)c1ccc(C(=O)OCC(=O)Nc2ccc(S(N)(=O)=O)cc2)cc1 | 3 | -1.2 | 1.3 | -3 | -3 | -4.3 | nt | -7%
Cc1ccc(Nc2nc(NCCO)nc(N3CCCC3)n2)cc1 | -4 | 1.0 | 1.9 | -14 | 0 | 0.9 | -3.5 | nt
CC(=O)c1cccc(NC(=S)N2CCN(S(C)(=O)=O)CC2)c1 | -6 | -0.5 | -1.3 | 0 | -7 | -4.9 | -0.4 | 3%
COc1cc(C)nc(N2CCC(C(N)=O)CC2)n1 | -1 | -0.3 | -0.7 | ? | -10 | -0.4 | nt | -1%
Cc1ccc(CNC(=O)c2ccc(C#CC(C)(C)O)s2)cc1 | -2 | 0.0 | 0.2 | -20 | 0 | -1.6 | nt | 4%
O=C(Nn1cnc2ccccc2c1=O)c1ccccc1F | -3 | -0.4 | 0.0 | 13 | -21 | -3.0 | -14 | -5%
CC/C(=N\N=C(/CC)c1ccccc1N)c1ccccc1N | nt | 0.4 | -2.8 | 2 | -19 | 3.2 | -2.5 | nt
CC(C)(C)C1=Nn2c(nnc2-c2ccccc2F)SC1 | -17 | -0.1 | 3.8 | -3 | -26 | 4.6 | -8.0 | 0%
Nc1ccc(C(=O)N/N=C2\CCCc3c2[nH]c2ccccc32)cc1 | 2 | 0.4 | 5.8 | -11 | 6 | -3.6 | nt | -2%
CCC(c1nnc(SCC(=O)Nc2ccc(Cl)cc2C(F)(F)F)n1C1CCCCC1)N(C)C (stereo not given) | -4 | -1.5 | -4.2 | -15 | 10 | -13 | nt | nt
O=C(N[C@@H](Cc1ccccc1)C(=O)CCl)OCc1ccccc1 | -14 | 1.1 | nt | nt | nt | -4.7 | -8.7 | nt
Cc1cc(Cl)ccc1OCC(=O)N/N=C/c1ccc(OC2OC(CO)C(O)C(O)C2O)cc1 (stereo not given) | -5 | 0.4 | -2.1 | 2 | -1 | 1.4 | 7.3 | 18%
COc1cccc(N2C(=O)/C(=C\c3cccs3)NC2=S)c1 | -1 | -0.9 | -2.1 | -7 | -6 | 2.9 | -0.1 | 8%
CCc1ccccc1N(C)S(=O)(=O)c1ccc(-c2cc(C)no2)s1 | 30 | 0.3 | -0.3 | 8 | 4 | -1.6 | 2.5 | nt
O=C(CN1C(=O)C2CC=CCC2C1=O)Nc1nnc(SCc2ccc(Cl)cc2)s1 (stereo not given) | -4 | -0.4 | -2.4 | -1 | -13 | -1.4 | nt | ?
C=CCn1sc(N)c(C(=O)OCC)c1=S | -4 | -0.2 | -1.8 | -4 | 1 | 0.7 | nt | 5%
COCC(=O)Nc1ccc(Br)cc1C | -4 | 1.0 | 0.0 | 3 | -15 | 5.4 | -1.3 | 4%
Cc1ccc(S(=O)(=O)CCC(=O)NNC(=O)CN(C)S(=O)(=O)c2ccc(C)cc2)cc1 | -3 | -0.1 | nt | nt | nt | -0.3 | -2.6 | -6%
CC(Cc1ccsc1)NC(=O)CCc1nnc(CCc2ccccc2)o1 (stereo not given) | -1 | -0.2 | -0.8 | 25 | -6 | -2.4 | -1.1 | -15%
Cc1ccc(NC(=O)COC(=O)CN2C(=O)COc3ccccc32)cc1 | -1 | -0.3 | 1.5 | 13 | 11 | -6.0 | nt | 13%
Cc1cc(C)cc(C(=O)Nc2nnc(SCC(=O)NCC3CCCO3)s2)c1 (stereo not given) | 2 | -0.2 | -1.4 | -2 | -7 | -0.7 | -2.3 | nt
Cc1ccc(Nc2nnc(SCC(=O)Nc3cccc(S(=O)(=O)NC4=NCCCCC4)c3)s2)c(C)c1 | -2 | 1.2 | -0.5 | 2 | 13 | nt | nt | 20%
CCOC(=O)N1CCC(NCCNC(=O)c2cccc(F)c2)CC1 | 0 | 1.2 | nt | nt | nt | 7.6 | -0.8 | nt
Fc1ccccc1/C=N/n1cnnc1 | 0 | -0.2 | 1.1 | -5 | -7 | 3.5 | nt | 3%
CCCCN1C(=N)N([C@@H](CCC)CN2CCC[C@H]2CN2C(N)=NC[C@@H]2Cc2ccccc2)C[C@H]1Cc1ccccc1 | 6 | 1.1 | nt | nt | nt | -1.6 | 17 | nt
CCOC(=O)c1ccc(Oc2nc(N(C)C)nc(N(C)C)n2)cc1 | 1 | 1.2 | -3.1 | 0 | 21 | 11 | nt | -5%
CCCC(=O)Nc1ccc2c(c1)nc(CN1CCN(C(=O)OCC)CC1)n2CC | 12 | 0.8 | 5.0 | 8 | -10 | 4.4 | -3.0 | 4%
CC1(C)CC(=O)c2c(O)cc(OCC(=O)N3CCN(c4ccc(F)cc4)CC3)cc2O1 | 6 | 0.1 | -0.5 | 11 | 19 | 2.2 | 3.1 | 0%
CCN(CC)c1ccc(C2CC(=O)Nc3cc(OC)c(OC)cc32)cc1 (stereo not given) | 0 | -0.1 | -3.3 | -9 | 14 | 4.4 | nt | 5%
Cc1csc(SCC(=O)Nc2ccc(S(=O)(=O)N3CCCC3)cc2)n1 | -3 | 0.1 | 2.4 | 2 | 5 | 0.0 | nt | -1%
CC1(C)CC(=O)C/C(=N/NC(=O)COc2ccc3ccccc3c2Br)C1 | -5 | -1.4 | -1.9 | 9 | 6 | -3.9 | -6.7 | -5%
CC(=C/c1ccco1)/C=N/NC(=O)c1ccncc1 | 3 | 0.1 | -2.1 | -8 | 21 | -0.5 | 1.2 | ?
CCOC(=O)C1CCN(C(=O)COC(=O)CSc2ccc([N+](=O)[O-])cc2)CC1 | nt | -0.6 | 2.0 | 0 | -5 | 2.0 | -1.2 | -1%
COc1ccc2nc(N3CCCCC3)c(C#N)cc2c1 | 1 | 0.4 | 31* | 4 | 3 | -1.3 | nt | -287%
Cc1cc(-c2nnc(SCC(=O)Nc3cccc(Cl)c3)n2N)n[nH]1 | -2 | 1.2 | 0.5 | -7 | -13 | -27 | 0.5 | nt
C=C1CCc2c([nH]c3ccc(OCC(C)C)cc23)C1=O | 139* | 4.8 | 0.5 | 4 | 48 | -0.3 | -1.2 | nt
C=CCOC(=O)C1=C[C@@H](c2ccc(C(F)(F)F)cc2)[C@H](CCCO)[C@@H](OCC)O1 | -2 | 0.6 | -8.2 | 19 | 20 | -0.8 | -4.9&-4.5 | -9%
CCN1CCCC1CNC(=O)COc1cc(=O)n(C)c2ccccc12 (stereo not given) | -1 | -0.1 | 4.5 | 16 | -15 | 4.9 | nt | -2%
O=C(COc1ccc(S(=O)(=O)N2CCOCC2)cc1)NCc1ccccn1 | 1 | 0.5 | 5.4 | 1 | -14 | 2.5 | -0.7 | 0%
N=c1scc(-c2ccccc2)n1/N=C/c1ccco1 | 1 | 0.6 | 2.1 | 2 | -2 | 1.4 | nt | ?
Cc1ccc(-c2nc(-c3cccnc3)sc2CC(=O)Nc2ccc3nc(C)sc3c2)cc1 | 2 | -0.4 | 6.3 | -19 | ? | -2.2 | nt | -48%

Other results
SMILES | Beta cell apopt | A1 inh | RanGTP-Impb inh | Calb FLC | T cruzi repl | LANA-H2B inh | MLL AF4-AF9 inh | Vif A3G
Cc1nc(CSc2n[nH]c(=O)n2-c2cccc(F)c2)cs1 | 4 | 0.0 | 3.6 | 1 | 3 | -2.0 | -2.7 | -5%
CN1CCN(C(=O)c2ccc(OCCOc3ccccc3)cc2)CC1 | -3 | -0.2 | -5.4 | 3 | -7 | 2.2 | nt | nt
CCC(C)c1ccc(OCC(=O)Nc2ccc(CN3CCOCC3)cc2)cc1 (stereo not given) | -5 | 0.2 | -1.5 | 9 | -1 | 2.3 | 2.3 | nt
CCOC(=O)N1CCC(NC(=O)C(NC(=O)C2CCC(C)CC2)C(C)CC)CC1 (stereo not given) | nt | nt | -4.3 | 12 | 0 | nt | nt | 6%
C/C=C/c1ccc(OCc2cc(=O)n3cc(C)ccc3n2)c(OC)c1 | 2 | -0.3 | -0.5 | -2 | 14 | -1.7 | 8.7 | 9%
COc1ccc(C(=O)N2CCN(c3ccc(N4CCOCC4)nn3)CC2)cc1OC | -5 | -0.2 | 1.9 | 2 | -6 | 11 | -0.7 | -8%
COc1ccc(CCNC(=O)C2CC3Cn4c(nc5ccccc54)C3N2Cc2ccccc2)cc1 (stereo not given) | 1 | 0.0 | 1.0 | -38 | 5 | -6.2 | nt | nt
